High-throughput results (PubChem)
gsp antag: qHTS for Antagonists of gsp, the Etiologic Mutation Responsible for Fibrous Dysplasia/McCune-Albright Syndrome: qHTS; gsp-mutant cells, cAMP HTRF, 30 min; control for the full effect not named in the record; Potency, µM (titrated, usually from 76.9 µM), for the others: top-dose activity change, negative = inhibition, actives largely listed as inhibitors; 340,000 tested, 0.4% active; active = falling curve of any shape with a large fitted effect; inconclusive = falling curve, mostly with a smaller effect; inactive = flat or rising curve; cell line not stated here;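 also: intracellular cAMP measured with PDE inhibitor Ro 20-1724 present during compound exposure; potency is read from the fitted curve at half-maximal effect; % is scaled to controls: 0 for no effect and ±100 for the full control effect; nearly all actives have a fitted effect of over 65% in size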
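HTRF cAMP measurement after 30 min RT detection following 30 min, 37C compound treatment alongside […] (added as 300 uM solution) in G418-selected cells seeded at 2000/well and grown 16–24 h.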
TRPML1 blocker: qHTS for Inhibitors of the Human Mucolipin Transient Receptor Potential 1 (TRPML1); TRPML1-inducible cells, Ca2+ dye fluorescence, FDSS; stronger effect = lower value; inhibition of EC80 agonist-evoked calcium signal; activity change, negative = inhibition, % (concentration not given with the values); 390,000 tested, 0.02% active; AID 624415, 2012; in the data active means activity change below about -50%; inconclusive means about -30% to -50%; inactive means above about -30%;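 also: stimulus is agonist 54-4 at its EC80 concentration; % is scaled to controls: 0 for no effect and ±100 for the full control effect; compound concentration not given in the record; the text of the record puts the active cut at -80%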
Target sequence (Q9GZU1 whole entry, looked up): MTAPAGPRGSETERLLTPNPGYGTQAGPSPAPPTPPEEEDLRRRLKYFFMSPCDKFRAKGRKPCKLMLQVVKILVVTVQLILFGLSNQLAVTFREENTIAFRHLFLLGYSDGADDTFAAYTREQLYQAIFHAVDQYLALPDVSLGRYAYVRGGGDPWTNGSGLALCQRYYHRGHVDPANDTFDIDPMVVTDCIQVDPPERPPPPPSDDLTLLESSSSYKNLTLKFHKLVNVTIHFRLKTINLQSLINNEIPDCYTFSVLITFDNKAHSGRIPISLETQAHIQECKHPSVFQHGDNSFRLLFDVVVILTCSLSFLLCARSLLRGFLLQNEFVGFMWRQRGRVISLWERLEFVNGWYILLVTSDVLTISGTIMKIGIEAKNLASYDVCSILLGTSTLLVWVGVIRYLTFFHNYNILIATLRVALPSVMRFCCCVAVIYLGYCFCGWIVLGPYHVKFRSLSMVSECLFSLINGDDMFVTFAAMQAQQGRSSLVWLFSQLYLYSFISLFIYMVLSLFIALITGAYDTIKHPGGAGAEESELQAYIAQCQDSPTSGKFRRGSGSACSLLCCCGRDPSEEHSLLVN
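Calcium fluorescence in TRPML1-DL cells induced overnight with Tet: a 110 s read after compound pin addition, then a 110 s antagonist read after challenge with 54-4 at 4 uM final (EC80).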
ClpP mod: qHTS Assay for Activators of ClpP; ATP-dependent Clp protease proteolytic subunit (Bacillus subtilis (strain 168)), P80244; 340,000 tested, 1.9% active; Potency, µM (highest dose often 57.5 µM), for the others: at the top dose activity change, negative = active; purified B. subtilis ClpP, FRET peptide cleavage, 20 min; active = well fitted falling curve with a large enough effect; inconclusive = small, poorly fitted or top-dose-only effect; inactive = no such curve, though single readings can be large or run the other way; also: potency is read from the fitted curve at half-maximal effect; the source files actives as falling curves though it sought activators and does not explain the sign; nearly all actives have a fitted effect of over 65% in size; many hits overshoot -100%
Target sequence (P80244 whole entry, looked up): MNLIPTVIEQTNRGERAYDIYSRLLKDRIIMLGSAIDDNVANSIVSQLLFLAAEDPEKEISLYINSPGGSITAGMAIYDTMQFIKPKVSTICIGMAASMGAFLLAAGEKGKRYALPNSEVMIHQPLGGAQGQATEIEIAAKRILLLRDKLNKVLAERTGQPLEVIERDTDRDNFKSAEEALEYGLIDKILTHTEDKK
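FRET quenching reversal measured ClpP activation: 10 microg/mL B. subtilis ClpP at pH 8 with the FRET-FV decapeptide, read at 430 nm after 320 nm excitation. The 20-min minus 0-min signal was scaled between DMSO/no-enzyme wells and ADEP (5.8 microM final).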
TRPML1 ag: qHTS for Agonists of the Human Mucolipin Transient Receptor Potential 1 (TRPML1); 410,000 tested, 0.12% active; activation, % (concentration not given with the values); TRPML1-expressing cells, Ca2+ dye fluorescence, FDSS; host cell line not named in the record; reference of the full effect not given here; AID 624414, 2012; in the data active = activation above about 50%; inconclusive = about 30% to 50%; inactive = below about 30%; also: 0% is about no effect; the text of the record puts the active cut at 80%
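Calcium fluorescence on an FDSS kinetic reader gave the read-out. Tet-induced TRPML1-DL cells were plated overnight, dye-loaded (Ca8 with quencher, 45-90 min, room temperature, dark), then read 110 s after compound addition, and again 110 s after 4uM final 54-4 (EC80).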
Menin MLL FP FL: qHTS Assay for Inhibitors Targeting the Menin-MLL Interaction in MLL Related Leukemias: Competition With Fluorescein Labeled MLL-derived Peptide; 290,000 tested, under 10 active; Fluorescence polarization, fluorescein-MLL peptide displacement from menin; FP activity change, % at 61.4 µM; AID 1766, 2009; inconclusive = falling polarisation curve, or a change in total fluorescence; inactive = total fluorescence flat and polarisation flat or rising; no compound was filed as active; the % refers to the polarisation; negative = inhibition;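 also: % of control where 0% means no effect; inhibitors lower the polarisation; unlabelled MLL peptide was the positive control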
gsp ag: qHTS for Agonist of gsp, the Etiologic Mutation Responsible for Fibrous Dysplasia/McCune-Albright Syndrome: qHTS; AID 624287, 2012; gsp mutant cells, cAMP HTRF, 30 min; control for the full effect not named in the record; Potency, µM (titrated, usually from 76.9 µM), inactives show top-dose activation (cAMP increase), most hits filed as activators; 340,000 tested, 0.13% active; active = well fitted activation curve with a large enough effect; inconclusive = small, poorly fitted or top-dose-only effect, or another doubt; inactive = no such curve, though single readings can be large or run the other way; cell line not stated here;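 also: phosphodiesterase inhibitor Ro 20-1724 added with compounds to block cAMP breakdown; potency is read from the fitted curve at half-maximal effect; nearly all actives have a fitted effect of over 60% in size; about a fifth of the inactives were tested at one dose only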
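Cells stably selected in G418 were plated at 2000/well, grown 16-24 hr, then given compounds in DMSO with the PDE inhibitor […] (300 uM solution added) for 30 min at 37C; cAMP was read by HTRF.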
An asterisk follows results filed as active; ? = inconclusive; . = not tested or not shown; [ ] = another dose, or the depositor's remark.

Order of results: gsp antag, TRPML1 blocker, ClpP mod, TRPML1 ag, Menin MLL FP FL, gsp ag
- OC1(c2ccccc2)CCN(Cc2ccccc2)C2CCCCC21 (configuration not stated)
→ 13%, 12, 1.2%, 0.0, -2.0, 5%
- Cc1ccc(S(=O)(=O)CC(c2ccccc2)N2CCOCC2)cc1 (configuration not stated)
→ 4%, -14, -9.7%, 0.3, 2.7, -36%[inhibitor]
- COc1ccc(N(Cc2cccs2)C(=O)Nc2cccc(Cl)c2)cc1
→ ., 36, -2.2%, 2.1, ., .
- CC(C)Nc1nc(NC(C)(C)C)nc(Oc2ccc(=O)n(C)n2)n1
→ -1%, -3, 0.5%, 0.6, -1.7, 21%
- Cc1ccc(NC(=O)[C@H](CC(C)C)NC(=O)[C@@H]2Cc3ccccc3CN2)cc1
→ 10%, -13, 2.2%, -0.6, ., -15%
- Cc1cc(OCC(O)CN2CCc3ccccc3C2)ccc1Cl (configuration not stated)
→ 16%, -1, ., -0.6, -0.9, -29%
- Cc1ccc(C(=O)CSc2ccc(-c3cccnc3)nn2)cc1
→ -1%, 5, ., -1.0, -2.2, -46%[inhibitor][15.4 µM]
- COc1cc(SC#N)ccc1N=Cc1c(C)[nH]n(-c2ccc(C)cc2C)c1=O
→ -8%, 35, ?, -1.4, ?, 0%
- CC(CCc1ccccc1)NC(=O)CSc1n[nH]c(-c2ccc(F)cc2)n1 (configuration not stated)
→ ., -10, 2.0%, 1.8, ., .
- CCOC(=O)c1ccc2[nH]c3c(c2c1)CN(C)CC3
→ 9%, -4, 3.8%, -0.3, 1.2, -82%[inhibitor]
- COc1ccc(-c2cc(C(=O)NC(C(=O)O)C(C)C)c(C)o2)cc1OC (configuration not stated)
→ -3%, -8, -1.1%, -0.3, -0.4, 10%
- Cc1ccc(NC(=O)CCn2cccc2)cc1F
→ -5%, -7, -1.0%, -0.8, 5.1, -16%
- Cc1ccc(N(CC(=O)NCCSc2nc3ccccc3s2)S(=O)(=O)c2ccccc2)c(C)c1
→ -18%, -3, -2.9%, 2.6, -4.1, 0%[15.4 µM]
- Cc1ccc(CNC(=O)Nc2ccc(OC(F)(F)F)cc2)n1C
→ 4%, -23, -2.5%, 0.4, 2.6, 14%
- O=C1C(Nc2ccccc2)=CC(c2ccc(O)cc2)N1c1ccccc1 (configuration not stated)
→ -37%, ., -8.7%, ., 1.7, -56%
- Nc1nonc1-n1nnc(C(=O)N/N=C/c2ccc(Cl)cc2)c1-c1ccc2c(c1)OCO2
→ ?, 12, -8.2%, 0.8, ., 0%
- COc1cccc(-c2cccc(NC(=O)C3CCN(CCCn4cccn4)CC3)c2)c1
→ ., 4, 1.8%, -1.1, ., 0%
- C=CCn1c(SCC2CCCCO2)nc2sc(CC)cc2c1=O (configuration not stated)
→ -16%, ., -6.2%, ., 2.2, 4%
- Cc1cc(C)cc(NC(=O)c2ccc(CSc3nnc(C)s3)cc2)c1
→ -2%, 32, -0.2%, 0.2, 1.6, 2%
- O=C(CSc1nnc(-c2ccncc2)n1-c1ccccc1)Nc1ccc(Br)cc1
→ ., 29, -2.8%, 1.3, ., .
- O=c1ncn(-c2cccc(Cl)c2)c2ccccc12
→ 10%, -9, -0.3%, 0.4, ., -19%[15.4 µM]
- CC1(C(=O)CSc2nc3ccccc3s2)CCC(=O)O1 (configuration not stated)
→ -3%, ?, -1.0%, -0.1, 2.1, ?
- CCOC(=O)c1c(NC(=O)COC(=O)c2nccnc2N)sc(C(=O)N(C)C)c1C
→ 4%, -2, 0.3%, 0.4, ., 2%[15.4 µM]
- COc1ccc(CCNC(=O)C2CCN(Cc3nc(-c4ccccc4F)oc3C)CC2)cc1OC
→ -7%, 21, -2.5%, -1.0, -0.8, -8%
- Cn1c(=O)c(=O)n(C)c2cc(S(=O)(=O)NCCOc3ccccc3Cl)ccc21
→ -7%, 17, ., 0.4, -1.2, 0%
- Cc1nc2scc(-c3ccc(C(C)C)cc3)c2c(=O)n1N
→ ?, 25, ., 2.9, 0.2, 7%[15.4 µM]
- COc1ccc(-n2cnc3ccccc32)cc1
→ 5%, -2, -2.9%, 0.2, 0.8, -52%[inhibitor]
- CCc1ccccc1OCC(=O)Nc1ccc(S(N)(=O)=O)cc1
→ 3%, 36, -0.8%, -0.8, 2.4, ?
- CCOC(=O)N1CCC(NC(=O)c2ccc(CS(=O)c3ccc(Cl)cc3)o2)CC1 (configuration not stated)
→ -18%, -3, ., 0.1, -6.5, -29%
- Cc1noc(C)c1CSc1nnc2sc3ccccc3n12
→ 1%, 5, 1.0%, -0.4, 0.6, 2%
- COc1ccccc1C(CNC(=O)C1COc2ccccc2O1)N1CCCC1 (configuration not stated)
→ 8%, -2, 1.8%, -0.9, ., -28%
- COc1ccc(CN2C(=O)CNC2=S)cc1
→ 10%, -5, 1.1%, 0.4, 6.9, -16%
- Cc1ccc(NS(=O)(=O)c2ccccc2)c(NS(=O)(=O)c2ccccc2)c1
→ -16%, -5, ., 2.2, ., -23%
- COc1ccc(OC)c(S(=O)(=O)Nc2ccc3oc(C)c(C(C)=O)c3c2)c1
→ ., -8, ., 0.0, -1.6, 3%[15.4 µM]
- CCn1c(=NC(=O)c2ccco2)sc2cccc(F)c21
→ -15%, -16, ?, 1.9, 1.8, -24%
- COc1ccc(-n2c(C)cc(C3=NNC(=NC4CC4)SC3)c2C)cc1
→ 5%, -24, ., 0.9, 9.2, 4%[15.4 µM]
- COc1cccc(CC(=O)NC2CCCN(Cc3ccc(Cl)cc3)C2)c1 (configuration not stated)
→ 4%, -7, -21%, -0.9, -2.7, 2%[15.4 µM]
- COc1ccc(Cn2c(CCC(=O)Nc3ccccc3)nc3cccnc32)cc1
→ 14%, 2, 1.9%, 2.4, 3.2, 9%
- CCN(Cc1ccncc1)C(=O)c1cc(COc2ccc(OC)cc2Cl)on1
→ -9%, 7, -1.8%, 1.1, ., 5%
- O=C(CN1C(=O)/C(=C/c2ccc(F)cc2)SC1=S)NC1C=CS(=O)(=O)C1 (configuration not stated)
→ -1%, 26, -2.2%, 0.5, 1.9, -5%
- COc1ccc([N+](=O)[O-])cc1NC(=O)c1ccco1
→ 3%, -1, ., -0.2, 4.5, 4%[15.4 µM]
- O=C(CSc1c2c(nc3cc(Cl)ccc13)CCCC2)NCc1ccco1
→ -3%, 6, -3.2%, 0.2, -3.2, ?
- Cc1ccc2oc3c(c(=O)c2c1)C(c1ccc(OCC(N)=O)cc1)N(Cc1ccc2c(c1)OCO2)C3=O (configuration not stated)
→ ., 15, 3.4%, 0.5, ., .
- CN(Cc1c(F)cccc1Cl)C(=O)c1cccc(S(=O)(=O)NCc2ccccc2)c1
→ -6%, 14, 0.8%, 1.5, ., -4%
- CC(C)(C)NC(=O)C(c1ccncc1)N(Cc1ccc(F)cc1)C(=O)c1ccc(-c2ccccc2)[nH]1 (configuration not stated)
→ -24%, 5, ., 0.5, 11, ?

The closing four entries of the part before lead into the next:
Order of results: gsp antag, TRPML1 blocker, ClpP mod, TRPML1 ag, Menin MLL FP FL, gsp ag
- O=C(CSc1c2c(nc3cc(Cl)ccc13)CCCC2)NCc1ccco1
→ -3%, 6, -3.2%, 0.2, -3.2, ?
- Cc1ccc2oc3c(c(=O)c2c1)C(c1ccc(OCC(N)=O)cc1)N(Cc1ccc2c(c1)OCO2)C3=O (configuration not stated)
→ ., 15, 3.4%, 0.5, ., .
- CN(Cc1c(F)cccc1Cl)C(=O)c1cccc(S(=O)(=O)NCc2ccccc2)c1
→ -6%, 14, 0.8%, 1.5, ., -4%
- CC(C)(C)NC(=O)C(c1ccncc1)N(Cc1ccc(F)cc1)C(=O)c1ccc(-c2ccccc2)[nH]1 (configuration not stated)
→ -24%, 5, ., 0.5, 11, ?
- Cc1ccccc1-c1nc(CN2CCC(C(=O)NCc3ccccc3Cl)CC2)c(C)o1
→ ., 8, 0.5%, 0.0, ., .
- Cc1nc2nc[nH]n2c(=O)c1NC(=O)c1cccc(OCC(C)C)c1
→ -1%, 70, 0.9%, -0.8, 1.0, 0%
- O=C(O)c1cccc(NC(=S)NC(=O)c2ccc(-c3ccccc3)cc2)c1
→ -13%, -10, ., -0.7, 0.4, -31%
- COCCNC(=O)CC(NS(=O)(=O)c1ccc(NC(C)=O)cc1)C(C)C (configuration not stated)
→ 4%, -1, 32µM*, 0.4, 4.4, -46%[inhibitor]
- CCCC(=O)Nc1ccc(Cl)c(NC(=O)c2cccnc2)c1
→ 2%, 5, -16%, 0.3, -1.5, 10%
- CC(=O)c1c(C)oc2ccc(O)c(CN3CCOCC3)c12
→ 11%, 23, 0.4%, -0.4, -0.8, -14%
- CCCc1cc(=O)[nH]c2nnc(SCC(=O)Nc3ccc(NC(C)=O)cc3)n12
→ 15%, -2, -3.8%, -0.3, ., 0%
- CC(CCc1ccccc1)NC(=O)C1CCN(S(=O)(=O)c2cnc[nH]2)CC1 (configuration not stated)
→ 7%, -4, 0.2%, -0.1, -0.4, 3%
- Cc1ccc(N(CC(=O)N2CC(=O)Nc3ccccc32)S(=O)(=O)c2ccc3c(c2)OCCO3)cc1
→ -22%, 20, -8.9%, 1.0, 0.7, -11%
- COc1ccc(CN2CCCC(CNC(=O)c3ccc(F)cc3)C2)c(F)c1 (configuration not stated)
→ 18%, -12, ., -0.5, -1.1, -81%[inhibitor]
- CCOC(=O)CN(c1ccccc1C)S(=O)(=O)c1ccc(Cl)cc1
→ ?, 54, 0.5%, 4.0, 1.3, -5%
- O=C(COC(=O)c1cccnc1)NC1CCCc2ccccc21 (configuration not stated)
→ 12%, 4, ., 0.2, ?, -7%[15.4 µM]
- O=C(CNC(=S)NC(=O)C1CCCCC1)c1ccccc1
→ 0%, -11, -7.4%, 0.8, 2.7, -10%
- O=C(N1CCCCCC1)N1CCN(S(=O)(=O)N2CCCCC2)CC1
→ 8%, -8, -4.2%, 0.4, -0.4, 10%
- COCCN(CC(=O)Nc1cccc(C)c1C)C(=O)C1(c2ccccc2)CC1
→ 16%, 40, -1.4%, 1.9, ., -9%
- COc1cc2c(cc1O)[C@@H]1Cc3cc(OC)c(OC)cc3C(C2)N1C
→ 7%, 48, 0.3%, -0.2, 1.9, .
- Cn1c(C(=O)NCCCN2CCCCC2)cc2sccc21
→ 18%, -1, -5.0%, 2.0, -0.5, -2%
- CC1CCCCN1C(=O)CSc1nnc(-c2ccccc2O)o1 (configuration not stated)
→ 4%, -13, ., 0.9, 0.6, ?
- COc1ccc(Br)cc1CNC(=O)CCSCc1ccc(Cl)cc1
→ ., 3, -0.2%, 3.0, ., .
